H5N1 CPE: MDCK cell protection from H5N1 avian flu. cytopathic effect, luminescence, 72 h; active compounds read high; no value below 0 was filed and about half of the inactive calls have no number; reference of the scale not given here. inhibition, % at 50 µM. actives 0.07% (n = 96,000). AID 740; in the data active = inhibition above about 25%
An asterisk follows results filed as active; i = inactive. A portion of the library; the hit share may differ from the screen's.

No. | SMILES | H5N1 CPE
1 | CCOC(=O)c1csc(NC(=O)CSc2nnnn2CC)n1 | i
2 | COc1ccc(C(C)=O)cc1COc1ccc(-n2cnnn2)cc1 | 0.4
3 | Cc1cc(NC(=O)COC(=O)c2c(C)nn(Cc3ccccc3Cl)c2C)no1 | i
4 | Nn1c(COc2ccccc2)nnc1SCc1cc(=O)[nH]c2ccccc12 | 1.3
5 | CN1CCN(c2nc3c(c(=O)n(C)c(=O)n3C)n2CC(=O)C23CC4CC(CC(C4)C2)C3)CC1 | i
6 | O=C(/C=C/c1ccccc1Cl)NCCN1CCOCC1 | i
7 | CCCC(c1nnnn1Cc1cccs1)N1CCN(c2nc3ccccc3s2)CC1 (configuration not stated) | i
8 | CCn1c(CSc2nc3ccccc3s2)nnc1SCC(=O)c1ccc(Cl)cc1 | 0.1
9 | CCC1(C(=O)OC)NC(c2ccco2)C2C(=O)N(c3ccccc3)C(=O)C21 (configuration not stated) | i
10 | COc1cc(-c2csc(C)n2)ccc1O | 1.7
11 | CC1=[N+]([O-])C(C)(C)C(C)N(O)C1=O (configuration not stated) | i
12 | CCN(CC)S(=O)(=O)c1cc(C(=O)O)ccc1Cl | i
13 | COc1cc2c(cc1OC)C(C(=O)N1CCC3(CC1)OCCO3)C(c1ccccc1F)N(C)C2=O (configuration not stated) | i
14 | Oc1ccc(-n2cnnn2)cc1 | 0.2
15 | CCc1nnc(NC(=O)CSc2nc3c(cc2C#N)CCC3)s1 | i
16 | FC(F)(F)c1ccc(Oc2ccc3c(C(F)(F)F)cc(C(F)(F)F)nc3n2)cc1 | i
17 | Cc1ccc(Cn2nnnc2CN2CCC(O)(c3ccc(F)cc3)CC2)cc1 | i
18 | CCOC(=O)N1CCN(C(=O)c2oc3ccc(S(=O)(=O)N4CCOCC4)cc3c2C)CC1 | 2.5
19 | Cc1cc(NC(=O)CSc2nnc(-c3cccnc3)n2C)no1 | i
20 | CCOc1ccc(-n2c(SCC(=O)NCc3ccco3)nnc2-c2c[nH]c3ccccc23)cc1 | 2.7
21 | CCOc1ccccc1Nc1nnc(SCc2ccc(C(=O)OC)o2)s1 | 0.2
22 | O=C(CCCCn1c(=O)[nH]c2ccsc2c1=O)NCc1ccc2c(c1)OCO2 | 0.1
23 | CC1CN(c2oc(-c3ccco3)nc2C#N)CC(C)O1 (configuration not stated) | i
24 | c1ccc(-n2c(-c3ccco3)nnc2-c2ccco2)cc1 | 0.7
25 | Cc1ccc2nc(N3C(=O)C(O)=C(C(=O)c4cc5ccccc5o4)C3c3cccs3)sc2c1 (configuration not stated) | i

4 compounds picked at random from those above, as already listed:
No. | SMILES | H5N1 CPE
1 | CCOC(=O)c1csc(NC(=O)CSc2nnnn2CC)n1 | i
10 | COc1cc(-c2csc(C)n2)ccc1O | 1.7
9 | CCC1(C(=O)OC)NC(c2ccco2)C2C(=O)N(c3ccccc3)C(=O)C21 (configuration not stated) | i
2 | COc1ccc(C(C)=O)cc1COc1ccc(-n2cnnn2)cc1 | 0.4

(listing goes on)
No. | SMILES | H5N1 CPE
26 | CCOC(=O)C1C(=O)CC(C)(O)C(C(=O)OCC)C1c1cccc(OC(F)(F)C(F)F)c1 (configuration not stated) | 1.2
27 | CC(C)CCNC(=O)c1c(N)n(Cc2ccc3c(c2)OCO3)c2nc3ccccc3nc12 | i
28 | CCn1c(SCC(=O)NNC(=O)c2ccccc2)nnc1-c1ccncc1 | 0.3
29 | CCc1nc(NCc2ccc3c(c2)OCO3)c2oc3ccccc3c2n1 | 2.1
30 | CC(C)NC(=O)c1cc2c(-c3ccc(Cl)cc3)nn(C)c2s1 | i
31 | O=C(NCc1ccccn1)C1CCN(S(=O)(=O)N2CCCC2)CC1 | 1.0
32 | CC1(C)C(c2ccccc2)=NC(c2cccnc2)=[N+]1[O-] | 3.0
33 | CCN(CC)S(=O)(=O)c1ccc(C(=O)OCn2nnc3ccccc3c2=O)cc1 | 0.7
34 | N#Cc1c(/N=C/c2cccs2)sc2c1CCCCC2 | i
35 | COc1ccc(/C=C2\N=C(SC)SC2=O)cc1OC | i
36 | Cn1c(SCc2nc(-c3cccs3)no2)nnc1C1CCCCC1 | 1.6
37 | CCN(CC)C(=O)c1cnn(-c2ccccc2)c1NC(=O)c1ccco1 | 0.2
38 | CCc1ccc(OCC(=O)NNC(=O)CSc2ncnc3sc(C)c(C)c23)cc1 | i
39 | O=c1cccc2n1CC1CC2CN(C(c2ccccc2)c2sc3ncnn3c2O)C1 (configuration not stated) | 0.3
40 | Cn1nc(C(=O)OCC(=O)N2CCc3ccccc32)c2ccccc2c1=O | 0.6
41 | CC(C)(C)c1ccc(C(=O)c2c[nH]c(C(=O)NCC3CCCO3)c2)cc1 (configuration not stated) | i
42 | Cc1nc2nc(SCC(=O)NCc3ccco3)nn2c(C)c1Cc1c(F)cccc1Cl | 2.2
43 | CCCCC(=O)Nc1ccc2oc(-c3ccncc3)nc2c1 | i
44 | Cn1ncc2c(NCc3ccccc3)ncnc21 | 1.6
45 | O=C(CNC(=O)OCc1ccccc1)Nc1ccc(Br)cc1C(=O)c1ccccc1 | i
46 | O=C1Cc2ccccc2C(c2ccc(Br)cc2)N1 (configuration not stated) | i
47 | Cc1cc(C(=O)NCC(=O)O)c(C)o1 | 0.5
48 | O=S(=O)(NC1CC1)c1ccc(S(=O)(=O)N2CCCC3(CCCCC3)C2)cc1 | 1.4
49 | COc1ccc(C2=C(Nc3ccc(F)cc3)c3ccccc3C2=O)cc1 | i
50 | COCCn1c(-c2ccc(-c3ccccc3Cl)o2)nc2c1c(=O)[nH]c(=O)n2CC(C)C | 0.1
51 | COc1ccc2c(c1)[nH]c1c(=O)n(CCN(C)C)cnc12 | 0.2
52 | O=C(Nc1ccccc1-c1ccccc1)c1ccc(NC(=O)c2ccco2)cc1 | 61.8*
53 | CC(=O)Nc1ccc(C(=O)Nc2ccc(S(=O)(=O)N3CCCC3)cc2)cc1 | 1.2
54 | COc1ccc(CC(NC(=O)c2ccccc2)C(=O)NCC(=O)O)cc1 (configuration not stated) | 0.1
55 | O=C(Nc1ncc2c(n1)-c1ccccc1CC2)c1ccc(Cl)cc1 | 0.8
56 | CCOC(=O)C1C(=O)NC(N2CCN(Cc3ccccc3)CC2)=NC1c1ccccc1 (configuration not stated) | 0.1
57 | C=CCn1c(SCC(=O)c2cc(C)n(CCOC)c2C)nc2sc(C)c(C)c2c1=O | 2.4
58 | CCn1c(SCC(=O)OCC(=O)N2c3ccccc3NC(=O)C2(C)C)nnc1-c1ccco1 | 1.6
59 | O=c1c2ccccc2n(Cc2ccc(F)cc2)c(=O)n1C1CCCC1 | 0.2
60 | Cc1cc(O)c(-c2n[nH]c3c2C(c2cccc(O)c2)N(Cc2cccnc2)C3=O)cc1Cl (configuration not stated) | 1.0
61 | CCOc1ccc(-c2csc(N)c2C(=O)OC)cc1 | i
62 | COc1ccc(-c2nn(-c3ccccc3)cc2/C=N/n2cnnc2)cc1OC | i
63 | Cc1nn(C)c(C)c1S(=O)(=O)N1CCC(C(=O)NCCC2=CCCCC2)CC1 | i
64 | CCCCC(=O)NCCc1ccc(OC)cc1 | 0.7
65 | CCOC(=O)c1c(C)[nH]c(C(=O)COC(=O)CN2C(=O)C3CCCCC3C2=O)c1C (configuration not stated) | 0.4
66 | O/N=C/c1cn(-c2ccccc2)nc1-c1ccc2c(c1)OCCO2 | 3.1
67 | CC(C)(C)NS(=O)(=O)c1ccc(CCC(=O)N2CCOCC2)cc1 | 0.4
68 | CCOC(=O)CSC1=C(C#N)C(C)C2=C(CCCC2=O)N1 (configuration not stated) | 0.6
69 | CCCc1nc2sc3c(c2c(=O)n1NC(=O)CCC(=O)O)CCCC3 | i
70 | CCOC(=O)CS(=O)(=O)c1ccc(C(F)(F)F)cn1 | i
71 | COc1ccc2[nH]c3c(NCc4ccco4)ncnc3c2c1 | i
72 | Cc1c(S(=O)(=O)N2CCc3ccccc3C2)c(=O)n(C)c(=O)n1C | 1.7
73 | Cc1cc(C(=O)NNC(=S)NC(=O)/C=C/c2ccccc2Cl)n[nH]1 | 2.7
74 | N#Cc1ccccc1NC(=O)CSc1nnc(-c2ccc(F)cc2)n1-c1ccccc1 | 1.9
75 | COC(=O)CCC(NC(=O)c1cc(-c2ccc3c(c2)OCCO3)oc1C)C(=O)OC (configuration not stated) | 8.0

Later entries:
No. | SMILES | H5N1 CPE
76 | CCC(=O)N1c2ccc(S(=O)(=O)CCC(=O)NCc3ccc4c(c3)OCO4)cc2CC1C (configuration not stated) | 1.6
77 | CC(C)(C)C(=O)OCC1OC(n2cnc(C(N)=O)n2)C(O)C1O (configuration not stated) | i
78 | CN(C(=O)c1cc2nc(-c3ccco3)cc(C(F)(F)F)n2n1)C1CCCCC1 | 4.4
79 | NC(=O)CN1CCN(c2ccccc2F)CC1 | i
80 | Cc1cccc(N2C(=O)SC(N(CC(=O)O)c3cccc(C)c3)C2=O)c1 (configuration not stated) | i
81 | Cc1ccc(CNC(=O)c2ccc3c(=O)n(CCCN4CCCC4=O)c(=S)[nH]c3c2)cc1 | 0.5
82 | Nc1ccccc1Oc1ncc(C(F)(F)F)cc1Cl | 0.1
83 | CCOC(=O)Cc1c(C)nc2c(-c3cccc(Br)c3)c[nH]n2c1=O | i
84 | C=CCNC(=O)CN(c1ccc(F)cc1)S(=O)(=O)c1ccc(OC)cc1 | 0.8
85 | CCOc1ccc2nc(C(C)O)[nH]c2c1 (configuration not stated) | 0.1
86 | CCOc1ccc(CNn2nnnc2N)cc1 | 0.5
87 | CCC(C)NC(=O)C1CCCN(S(=O)(=O)c2ccc(-n3cnnn3)cc2)C1 (configuration not stated) | 0.6
88 | Cc1ccc2c(c1)cc(CN(Cc1cccs1)C(=O)c1ccco1)c1nnnn12 | 1.1
89 | CCn1c(Cn2nnc(-c3ccccc3)n2)nnc1SCC(=O)Nc1ccc(C(C)=O)cc1 | i
90 | CCOc1ccc(N2C(=O)C3CCCN3C2=O)cc1 (configuration not stated) | i
91 | CN(C)CCNc1oc(COc2ccc(-c3ccccc3)cc2)nc1C#N | i
92 | CC(C)OCCCN1CN(S(=O)(=O)c2ccccc2)c2nc3ccccc3nc21 | 0.6
93 | Cc1cc(C)c(NC(=O)CSc2nnc(-c3ccncc3)n2Cc2ccco2)c(C)c1 | 1.1
94 | O=C1CCCN1c1ccc(S(=O)(=O)Oc2ccc(Cl)cc2)cc1[N+](=O)[O-] | 1.8
95 | CC1=CCC(COC(=O)Nc2ccccc2)CC1 (configuration not stated) | 0.1
96 | CCOC(=O)N1CCN(C(C)C(=O)c2c[nH]c3ccccc23)CC1 (configuration not stated) | i
97 | Cc1cccc(S(=O)(=O)NCC2CCCO2)c1 (configuration not stated) | i
98 | O=C(NCC1CCCO1)c1csc2c1CCCCC2 (configuration not stated) | i
99 | COc1ccc2c(c1)c(C(=O)CN1CCC3(CC1)OCCO3)c(C)n2Cc1ccccc1 | i
100 | CCCCn1c(CN2CCN(c3ccc(F)cc3)CC2)nc2c1c(=O)n(C)c(=O)n2C | i

Part of the list above, field by field.
97) Cc1cccc(S(=O)(=O)NCC2CCCO2)c1 (configuration not stated)
- H5N1 CPE: i
98) O=C(NCC1CCCO1)c1csc2c1CCCCC2 (configuration not stated)
- H5N1 CPE: i
99) COc1ccc2c(c1)c(C(=O)CN1CCC3(CC1)OCCO3)c(C)n2Cc1ccccc1
- H5N1 CPE: i
100) CCCCn1c(CN2CCN(c3ccc(F)cc3)CC2)nc2c1c(=O)n(C)c(=O)n2C
- H5N1 CPE: i

(continued)
No. | SMILES | H5N1 CPE
101 | CCOc1ccccc1-c1nc(-c2ccc(C)nc2OC)no1 | i
102 | Cc1ccccc1OCc1nc(-c2ccc(NC(=O)c3ccc4c(c3)OCO4)cc2)no1 | i
103 | c1ccc2c(-c3nnc4n3CCCCC4)c[nH]c2c1 | 0.7
104 | CC(C)N1C(=S)SC2CS(=O)(=O)C=C21 (configuration not stated) | 1.3
105 | c1ccc(C(c2nnnn2C2CCCC2)N2CCCCCC2)nc1 (configuration not stated) | 0.8
106 | CCOc1ccc(NC(=O)COC(=O)c2cccnc2)cc1 | 1.2
107 | Cc1cccc(Nc2cnn(C34CC5CC(CC(CC(=O)O)(C5)C3)C4)c(=O)c2Cl)c1 | 0.5
108 | CC(=O)NCC(=O)NC(C(=O)Nc1ccc2c(c1)OCCO2)c1ccccc1 (configuration not stated) | i
109 | O=c1c2ccccc2nc(-c2ccco2)n1Cc1ccccc1 | 0.0
110 | Cc1c(C(=O)OC(C)C)sc(NC(=O)C2CCCO2)c1C(=O)OC(C)C (configuration not stated) | i
111 | O=C(NCc1cccnc1)C1CCCN(S(=O)(=O)c2ccc(Br)cc2)C1 (configuration not stated) | 1.6
112 | O=C(CN1CCOCC1)Nc1ccccc1C(=O)O | i
113 | Cc1ccc(OCC(O)Cn2c(NCCc3ccccc3)nc3c2c(=O)[nH]c(=O)n3C)cc1 (configuration not stated) | 0.4
114 | O=S(=O)(NCc1cccnc1)c1ccc(Br)s1 | 0.8
115 | Cc1cc(C)nc(NC2=NCC(=O)N2c2ccccc2)n1 | 0.3
116 | CCOc1ccc(C(=O)NC(Cc2ccccc2)C(=O)OC)cc1 (configuration not stated) | 1.0
117 | COc1cc2c(cc1OC)C(C(=O)Nc1cccc(C)n1)C(c1cccnc1)N(C)C2=O (configuration not stated) | i
118 | CCC(C)(C)n1nnnc1C(c1cc(OC)c(OC)c(OC)c1)N1CCN(c2ccccc2)CC1 (configuration not stated) | i
119 | O=C(CC1NC2CCCCC2NC1=O)Nc1ccc2c(c1)OCO2 (configuration not stated) | i
120 | COc1ccc(-c2c3c([nH]c(=S)c2C#N)CCC3)cc1 | 2.9
121 | CCOC(=O)C1(CCSC)NC(c2ccco2)C2C(=O)N(CC)C(=O)C21 (configuration not stated) | 0.4
122 | COC(=O)COn1c(-n2nc(C)cc2C)nc2ccccc2c1=O | 0.9
123 | CS(=O)(=O)c1ccc2nc(NC(=O)C3CCCCC3)sc2c1 | i
124 | Cc1ccc(N/C(N)=N/c2nc(CSc3ccc(C)cc3)cc(=O)[nH]2)cc1 | i
125 | O=C(CCN1C(=O)C2C3C=CC(C3)C2C1=O)Nc1c(F)cccc1F (configuration not stated) | i
126 | c1coc(CNC2CCCCCCC2)c1 | i

Screens: PubChem, SRMLSC
